GIV-Gai inh = GIV-Galpha-i interaction inhibition. Galpha-i3/FITC-GIV peptide fluorescence polarization, 90 min; hits give low values; scaled: aluminum fluoride 0%, vehicle 100%. percent of control (FP), % (test concentration not listed). 210,000 tested, 0.42% active;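 active means replicate mean at 85% of control or lower, very high polarization wells dropped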;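 further: wells of about 15 µL received 100 nL stock; the first replicate is given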
Target sequence (P08753 whole entry, looked up): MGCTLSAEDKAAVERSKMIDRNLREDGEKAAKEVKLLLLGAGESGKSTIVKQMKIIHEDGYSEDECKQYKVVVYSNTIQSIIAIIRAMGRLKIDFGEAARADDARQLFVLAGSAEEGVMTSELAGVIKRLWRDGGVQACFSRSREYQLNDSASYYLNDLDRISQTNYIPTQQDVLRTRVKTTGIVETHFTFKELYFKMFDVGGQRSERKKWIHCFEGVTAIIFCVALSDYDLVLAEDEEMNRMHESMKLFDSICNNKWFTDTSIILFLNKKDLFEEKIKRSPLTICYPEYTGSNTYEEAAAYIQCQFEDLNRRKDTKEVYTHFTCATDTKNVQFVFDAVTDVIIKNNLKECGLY
HCMV UL50-53 inh = cytomegalovirus nuclear egress complex inhibition | inhibition, % (test concentration not listed) | HTRF UL50-UL53 interaction, normalized percent inhibition | AID 1918969 | 190,000 tested, 0.15% active;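 active means both replicates at 50% or more, plus weaker picks with an unusually low signal ratio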;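 further: stock transfer was 100 nL into about 20 µL; 0% = negative control wells and 100% = wells with untagged competitor protein; inactives centre near -12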
Sa growth 42C = inhibitors of Staphylococcus aureus growth at 42 °C | S. aureus RN4220 growth, OD600, 20 h; hits give low values | 170,000 tested, 0.53% active | relative growth, % (concentration not given with the values);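 active means growth at 42 °C up to 50% and 20 or more points under that at 30 °C, or under 10% at both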;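 further: 300 nL library stock went into each well; scaled to the means of positive and negative controls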
Sa growth 42C second temp = also measured in Sa growth 42C; calls as there; relative growth, %; measured here: growth at 30 °C;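 optical density after 20 h as mean of two plates; 100% = untreated growth and lower means inhibition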
Active calls of the source: *; / = not tested or not shown; & = joins results of further samples.

Assay codes: A = GIV-Gai inh; B = HCMV UL50-53 inh; C = Sa growth 42C; D = Sa growth 42C second temp
COc1ccc(Cc2nc3ccc(C(=O)NCCc4ccc(OC)c(OC)c4)cc3o2)cc1
  A = 101 | B = / | C = 89 | D = 84

O=C(NCc1ccc(-c2cccs2)s1)c1ccc(Cl)cc1
  A = 104 | B = 4 | C = 106 | D = 109

CCOc1ccccc1-n1nnnc1SCC(=O)c1ccc[nH]1
  A = / | B = -35 | C = 108 | D = 93

Cc1nc2nc(NC(=O)C(C)C)[nH]n2c(=O)c1Cc1ccccc1
  A = 104 | B = -16 | C = 102 | D = 93

O=C(CCCCCN1C(=O)/C(=C/c2ccc(Br)cc2)SC1=S)Nc1nccs1
  A = 104 | B = -21 | C = / | D = /

Cc1cc(C(=O)Nn2cnnc2)cs1
  A = 107 | B = -1 | C = 100 | D = 99

Cc1ccc(OCc2nn3c(-c4ccoc4C)nnc3s2)cc1
  A = 109 | B = -3 | C = / | D = /

COc1cccc(C(=O)N2CCN(C(c3ccccc3)c3ccccc3)CC2)c1OC
  A = 101 | B = 8 | C = 94 | D = 91

O=C(NC1CC(=O)N(c2cccc(F)c2)C1)c1ccc2c(c1)OCO2 (configuration not stated)
  A = 101 | B = / | C = 117 | D = 84

O=S1(=O)N=CN(Cc2ccccc2)c2ccccc21
  A = 100&102 | B = -11 | C = 103 | D = 86

CCS(=O)(=O)c1ccc(-c2cccc(NC(=O)C3CCCCC3)c2)nn1
  A = 106 | B = -16 | C = / | D = /

CCOC(=O)c1c(NC(=O)c2cccc(Cl)c2)sc(C(=O)Nc2ccccc2OCC)c1C
  A = 107 | B = -2 | C = / | D = /

CN(C)c1ccc(NC(=O)CC2CCCCC2)cc1
  A = / | B = -9 | C = 90 | D = 87

CC(C)CC(NC(=O)C1CCC(C)CC1)C(=O)Nc1ccc2c(c1)OCCO2 (configuration not stated)
  A = 102 | B = -6 | C = 83 | D = 86

Cc1ccc(-c2nn(-c3ccccc3)c3[nH]c(C)cc(=O)c23)cc1
  A = / | B = -16 | C = 27 | D = 10

Entries from the list above with a halogen:
Assay codes: A = GIV-Gai inh; B = HCMV UL50-53 inh; C = Sa growth 42C; D = Sa growth 42C second temp
O=C(NCc1ccc(-c2cccs2)s1)c1ccc(Cl)cc1
  A = 104 | B = 4 | C = 106 | D = 109

O=C(CCCCCN1C(=O)/C(=C/c2ccc(Br)cc2)SC1=S)Nc1nccs1
  A = 104 | B = -21 | C = / | D = /

O=C(NC1CC(=O)N(c2cccc(F)c2)C1)c1ccc2c(c1)OCO2 (configuration not stated)
  A = 101 | B = / | C = 117 | D = 84

CCOC(=O)c1c(NC(=O)c2cccc(Cl)c2)sc(C(=O)Nc2ccccc2OCC)c1C
  A = 107 | B = -2 | C = / | D = /

More results
Assay codes: A = GIV-Gai inh; B = HCMV UL50-53 inh; C = Sa growth 42C; D = Sa growth 42C second temp
CC(C)(C)c1ccc(C(=O)N2CCN(C(=O)C3CCCCC3)CC2)cc1
  A = 105 | B = -16 | C = 101 | D = 99

O=C(CC1Nc2ccccc2NC1=O)Nc1ccccc1Cl (configuration not stated)
  A = / | B = -24 | C = 96 | D = 78

COc1ccc(NC(=O)C(c2ccc(C)cc2)N(C)C(=O)/C=C\c2ccc3c(c2)OCO3)cc1 (configuration not stated)
  A = 95 | B = -12 | C = 100 | D = 91

CC(C)Cc1cc(C(=O)Nc2cccc(O)c2)no1
  A = 107 | B = 12 | C = 95 | D = 97

CCOc1cccc(C2N=C(N)Nc3nc4ccccc4n32)c1 (configuration not stated)
  A = 99 | B = -31 | C = / | D = /

Cc1cccc(-n2ncc3c2ncn2nc(-c4ccccc4Cl)nc32)c1
  A = 103 | B = -10 | C = / | D = /

CCOc1ccc(/C=C/c2nc(C#N)c(Nc3ccc(OCC)cc3)o2)cc1
  A = 102 | B = -16 | C = 105 | D = 91

COCCn1c(SCC(=O)N2CCCCC2C)nc2sc(C)c(C)c2c1=O (configuration not stated)
  A = 103 | B = -8 | C = 98 | D = 103

CC(=O)Nc1ccc(S(=O)(=O)NCCS(=O)(=O)N2CCN(c3ccccc3F)CC2)cc1
  A = 101 | B = / | C = 115 | D = 90

CCc1ccc(C(=O)c2cn(CC(=O)Nc3cccc(OC)c3)c3ccc(OC)cc3c2=O)cc1
  A = 98 | B = -24 | C = 97 | D = 86

Cc1oc2c(c1C(=O)N1CCC(C)CC1)C(=O)c1ccccc1C2=O
  A = 101 | B = / | C = 49 | D = 21

COc1ccc(-c2ccc(=O)n(CCNS(=O)(=O)c3ccc4c(c3)CCN4C(C)=O)n2)cc1
  A = 101 | B = -95 | C = / | D = /

Cn1c(=O)c2c(-c3ccc(C(C)(C)C)cc3)n(-c3cc(N)c(Cl)cc3Cl)cc2n(C)c1=O
  A = 106 | B = / | C = 114 | D = 85

Cc1[nH]c(=O)n(C(C)(C)C)c(=O)c1Br
  A = / | B = -26 | C = 88 | D = 84

CCc1ccc(OCC(=O)N2CC(C)OC(C)C2)cc1 (configuration not stated)
  A = / | B = -22 | C = 129 | D = 85

CSc1nc(C)c(C)c(=O)[nH]1
  A = 103 | B = -9 | C = 101 | D = 87

Cc1oc(C(C)(C)C)cc1C(=O)NC(Cc1ccccc1)C(=O)O (configuration not stated)
  A = 102 | B = -4 | C = 118 | D = 108

CS(=O)(=O)N(CC(=O)O)C1CCCCC1
  A = 105 | B = -4 | C = 107 | D = 79

CCCCn1c(SCC(=O)N2CCCCCC2)nnc1-c1ccoc1C
  A = 98 | B = -10 | C = 103 | D = 80

COc1ccc(NC(=O)c2cccnc2Cl)cc1
  A = 97 | B = 6 | C = / | D = /

CC(=O)Nc1c(C(=O)O)[nH]c2ccc(F)cc12
  A = 103 | B = -16 | C = / | D = /

O=C1c2ccccc2NC(c2ccccc2)N1N=C1CCCCCC1 (configuration not stated)
  A = 102 | B = / | C = 121 | D = 85

Cc1ccc(C(=O)N/C(=C/c2ccccc2)C(=O)NCc2ccco2)cc1
  A = 102 | B = -27 | C = 101 | D = 93

Cc1ccc(NC2OC(CO)C(O)C2O)cc1C (configuration not stated)
  A = / | B = -6 | C = 90 | D = 81

CCC(Oc1ccccc1)C(=O)N1CCCCC1C (configuration not stated)
  A = 103 | B = 9 | C = 94 | D = 96

CCCNC(=O)c1[nH]c2ccccc2c1Sc1ccc(C)cc1
  A = 98 | B = / | C = 100 | D = 91

Cc1ccc2c(=O)c(C(=O)NC3CCCC3)c[nH]c2c1
  A = 103 | B = -21 | C = 83 | D = 80

COC(=O)c1ccc(C)c(NC(=O)c2ccc(C3SCC(=O)N3Cc3ccccc3)cc2)c1 (configuration not stated)
  A = 101 | B = -1 | C = 88 | D = 88

CSc1nnc(-c2ccccc2N)c(=O)[nH]1
  A = 101&107&106 | B = -20&-29 | C = 103&71&115 | D = 59&86&84

CC1=C(C(=O)Nc2nc3ccccc3s2)C(c2ccc(F)cc2)C2=C(CC(C)(C)CC2=O)N1 (configuration not stated)
  A = 104 | B = -21 | C = / | D = /

Cc1csc2nc(COc3ccc(NC(=O)c4ccccc4F)cc3)cc(=O)n12
  A = 109 | B = -21 | C = 105 | D = 89

CCOc1ccc(OCC)c(NC(=O)C2CCN(c3cnccn3)CC2)c1
  A = 105 | B = 15 | C = 104 | D = 89

COC(=O)N1CCN(c2nc(-c3ccccc3)cs2)CC1
  A = / | B = -7 | C = 90 | D = 69

O=S(=O)(c1ccc2nc(CO)[nH]c2c1)c1ccc2nc(CO)[nH]c2c1
  A = 107 | B = / | C = 74 | D = 92

C=CCCCCCCCCC(=O)[O-].C=CCCCCCCCCC(=O)[O-].[Zn+2]
  A = / | B = -9 | C = 97 | D = 91

COc1ccccc1N1CCN(S(=O)(=O)c2c(C)nc3sccn3c2=O)CC1
  A = 107 | B = / | C = 93 | D = 87

O=C(Nc1ccc(F)cc1)c1cnn(-c2ccc(Br)cc2)c1
  A = 100 | B = -25 | C = / | D = /

CC(C)N1CC23C=CC(O2)C(C(=O)O)C3C1=O (configuration not stated)
  A = 105 | B = / | C = 98 | D = 87

Nc1n[nH]c(=S)n1Cc1ccccc1
  A = 99 | B = -19 | C = 95 | D = 92

CC(C)(C)NC(=S)NCc1ccccc1
  A = / | B = -6 | C = 86 | D = 81

CC1CCCC(C)N1NC(=S)NC1CCCCC1 (configuration not stated)
  A = 101 | B = 2 | C = 117 | D = 95

Cc1cc(C)c2nc(NC(=O)c3ccc(S(=O)(=O)N4CCCC4)cc3)sc2c1
  A = 105 | B = / | C = 97 | D = 91

COc1cccc(NC(=O)Nc2cc(-c3cn4cccnc4n3)ccc2C)c1
  A = 108 | B = -30 | C = 90 | D = 93

CSc1ncnc2sc(C)cc12
  A = 107 | B = -31 | C = 97 | D = 97

CC1(C)CC(C)(c2ccccc2)c2cc(SC#N)ccc2N1 (configuration not stated)
  A = / | B = -4 | C = 53 | D = 59

COc1ccc(NC(=O)c2c(-c3ccccc3Cl)noc2C)cc1-n1cnnn1
  A = 104 | B = -27 | C = / | D = /

CCOC(=O)c1ncoc1-c1ccco1
  A = 95 | B = -19 | C = 88 | D = 72

CCc1c(C)nc2ncnn2c1Sc1ccccc1NC(=O)c1ccccc1
  A = 94 | B = -16 | C = / | D = /

O=c1n(Cc2ccc(F)cc2)c2ccccc2c2nc(-c3ccccc3)nn12
  A = 103 | B = -47 | C = 89 | D = 92

O=C(Cc1ccc(NC(=O)N2CCSc3ncccc32)cc1)Nc1ccc(F)c(F)c1
  A = 96 | B = -4 | C = / | D = /

Cc1ccc2nc(-c3ccc(Cl)c(NC(=O)c4ccc(Br)o4)c3)oc2c1
  A = 109 | B = -60 | C = 91 | D = 87

Cc1cc2c(cc1S(=O)(=O)N1CCN(C3CCCCC3)CC1)n(C)c(=O)c(=O)n2C
  A = 105 | B = -16 | C = 103 | D = 91

Cc1oc2ncn(CC(=O)N3CCC(C(N)=O)CC3)c(=O)c2c1C
  A = 105 | B = -4 | C = / | D = /

N#Cc1cc2c(nc1SCC(=O)Nc1ccc(S(=O)(=O)Nc3nccs3)cc1)CCCC2
  A = 106 | B = 17 | C = 101 | D = 98

CCOC(=O)Cc1nn2c(=O)cc(C)nc2s1
  A = 130 | B = 6 | C = 89 | D = 76

COc1ccc(C2C(=O)N(C3CCCCCC3)CC(=O)N2Cc2ccc(C)cc2)cc1 (configuration not stated)
  A = 99 | B = / | C = 127 | D = 92

C[N+]1(C)CCCC(OC(=O)C(O)(c2ccccc2)c2ccccc2)C1 (configuration not stated)
  A = / | B = -17&-5&-20 | C = 98 | D = 91

O=C1N=c2ccccc2=C1c1sc(NS(=O)(=O)c2ccccc2)nc1O
  A = 99 | B = / | C = 107 | D = 82

Cc1cccc(CNC(=O)c2oc3c(c2C)-c2nn(Cc4cccc(Cl)c4)cc2CC3)c1
  A = 101 | B = 8 | C = 106 | D = 104

Clc1cc(Cl)c(OCCCCn2cncn2)c(Cl)c1
  A = 99 | B = -1 | C = 124 | D = 87

(further entries)
Assay codes: A = GIV-Gai inh; B = HCMV UL50-53 inh; C = Sa growth 42C; D = Sa growth 42C second temp
O=C(Nc1ccc2oc(-c3cccc(Br)c3)nc2c1)c1ccc2c(c1)OCCO2
  A = 109&98 | B = -14&-19 | C = / | D = /

C=CCn1c(=O)n(CC=C)c(=O)n(Cc2ccc(Cl)cc2)c1=O
  A = / | B = 1 | C = 109 | D = 100

CC(C)C(=O)NS(=O)(=O)c1ccc(NC(=O)c2ccco2)cc1
  A = 104 | B = -3 | C = 106 | D = 90

O=C(CCSCc1ccccc1F)N1CCN(c2ccc(Cl)cc2)CC1
  A = 97 | B = / | C = 80 | D = 65

Cc1c(CNC2CCCCC2)c(C(=O)O)c(C)n1Cc1c(F)cccc1Cl
  A = 107 | B = -5 | C = 108 | D = 87

CC1Cc2ccccc2N1C(=S)NC(=O)c1ccco1 (configuration not stated)
  A = / | B = -25 | C = 114 | D = 57

CC1CN(CCC(C)c2ccccc2)CC(C)O1 (configuration not stated)
  A = 103 | B = -13 | C = 113 | D = 103

COc1ccc(NC(=O)CSc2nnc(-c3cccs3)o2)cc1
  A = 100 | B = 2 | C = 98 | D = 85

CCc1ccc(NC(=O)C(=O)NCCc2sc(-c3ccc(C)cc3)nc2C)cc1
  A = 101 | B = / | C = 107 | D = 91

O=S(=O)(NCCc1ccccn1)c1cccc2nsnc12
  A = 98 | B = -85 | C = 100 | D = 70

O=C(O)C1CCN(C(=O)c2sc3ccccc3c2Cl)CC1
  A = 103 | B = -2 | C = 90 | D = 85

c1ccc(CSc2ncnc3nc[nH]c23)cc1
  A = 95 | B = -14 | C = 92 | D = 79

Cc1nn(-c2ccccc2)cc1/C=N/NS(=O)(=O)c1ccccc1
  A = / | B = -23 | C = 105 | D = 94

Cc1ccc2c(cnn2C(=O)CCCC(=O)N2CCN(c3ccccc3)CC2)c1
  A = 106 | B = -5 | C = 114 | D = 92

N#CCC(=O)NCC1CCCO1 (configuration not stated)
  A = / | B = 8 | C = 105 | D = 93

Cc1cc2c(cc1Br)NC(=O)/C2=N\N1C(=O)c2ccccc2C1=O
  A = 98 | B = -9 | C = 96 | D = 94

N#CCCN=Nc1c(O)n(CO)c2ccccc12
  A = / | B = -48 | C = 93 | D = 104

O=C(CNC(=O)c1ccco1)Nc1ccc(Cl)cc1
  A = 101 | B = -12 | C = 97 | D = 85

Rows were taken by chance; 0.8% or so of the library scored in one or more.
